# A1 inh: inducers of caspase activity in MEF A1-2A-BIM cells, primary screen, A1 inhibitor project, cell-based, CaspaseGlo luminescence | caspase-Glo luminescence, 3 h; percent of clofoctol signal, DMSO as zero | caspase activation, % (concentration not given with the values) | 0.51% of 21,000 active | AID 2241, 2010;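 active means most replicate scores above 10, or exactly half above 10 with mean activity above 10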;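 further: effector caspase 3 and 7 activity cleaving a DEVD luciferin substrate; 50 nL library stock added to about 30 µL; numbers are from one replicate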
# BJeLR viab HTS: BJeLR cell viability loss, primary screen, luminescence, CellTiterGlo ATP. 0.64% of 30,000 active. viability loss activity score, % (concentration not given with the values). BJeLR fibroblasts viability, 48 h; HRASV12, hTERT and SV40 LT/ST transformed; in the data active means viability loss activity score above about 50%; about a fifth of its hits are not listed in these tables;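 further: higher score means fewer live cells and less ATP luminescence; stock transfer was 50 or 100 nL into about 30 µL; 0% = vehicle wells and 100% = a reference killing control; one replicate is shown; the record names a cut of 85%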
# Starred values were filed as active, the others as inactive; . = no result given.
# Preview, 3 compounds:
no.	SMILES	A1 inh	BJeLR viab HTS
1	COc1ccc(CCNC(=O)c2ccc3c(c2)NC(=O)/C(=C\c2ccc(C)cc2)S3)cc1OC	0.0	-1.5
2	COC(=O)CN1C(=S)N(c2ccccc2)C(=O)/C1=C/c1ccc(-c2ccc(Cl)cc2)o1	-0.2	-3.1
3	CC1(C)Cc2ccccc2C(CSc2nc3c(c(C(F)(F)F)n2)CCCC3)=N1	-1.1	-5.4

# The list itself, repeating the preview:
no.	SMILES	A1 inh	BJeLR viab HTS
1	COc1ccc(CCNC(=O)c2ccc3c(c2)NC(=O)/C(=C\c2ccc(C)cc2)S3)cc1OC	0.0	-1.5
2	COC(=O)CN1C(=S)N(c2ccccc2)C(=O)/C1=C/c1ccc(-c2ccc(Cl)cc2)o1	-0.2	-3.1
3	CC1(C)Cc2ccccc2C(CSc2nc3c(c(C(F)(F)F)n2)CCCC3)=N1	-1.1	-5.4
4	C=CCSc1nc(C)c2cc(C)cc(C)c2n1	.	2.6
5	C(=N\N1CCN(C2c3ccccc3-c3ccccc32)CC1)/c1cccs1	0.1	-4.8
6	C[C@H](CO)N1C[C@H](C)[C@@H](CN(C)Cc2ccc(C(F)(F)F)cc2)Oc2ccc(NS(=O)(=O)c3cccs3)cc2C1=O	0.3	-5.9
7	C[C@@H]1CN([C@H](C)CO)C(=O)c2cc(NC(=O)Nc3ccc(C(F)(F)F)cc3)ccc2O[C@@H]1CN(C)C	0.1	-1.9
8	CC(C)NC(=O)Nc1cccc2c1O[C@H](CN(C)C(=O)NC1CCCCC1)[C@H](C)CN([C@H](C)CO)C2=O	.	-8.1
9	C[C@@H]1CN([C@H](C)CO)C(=O)c2cccc(NC(=O)c3cnccn3)c2O[C@H]1CN(C)CC1CCCCC1	.	5.2
10	CC(C)C1NC(=S)NC2=C1CCCC2 (centres undefined)	-0.3	2.4
11	C[C@@H]1CN([C@@H](C)CO)C(=O)c2cc(NC(=O)CCN3CCOCC3)ccc2O[C@H]1CN(C)Cc1ccc(Oc2ccccc2)cc1	0.0	3.3
12	C[C@H](CO)N1C[C@H](C)[C@@H](CN(C)S(=O)(=O)c2ccc(F)cc2)Oc2ccc(NC(=O)CCCN(C)C)cc2C1=O	0.1	2.3
13	COC(=O)C1=C(C)NC(C)=C(C(=O)OCCSc2ccccc2)C1C (centres undefined)	-0.3	35
14	C[C@H]1CN([C@@H](C)CO)C(=O)c2cc(NS(C)(=O)=O)ccc2O[C@H]1CN(C)Cc1ccc(C(F)(F)F)cc1	0.2	-5.6
15	Cc1noc(C)c1NC(=O)N(C)C[C@@H]1Oc2ccc(NC(=O)Nc3ccc4c(c3)OCO4)cc2C(=O)N([C@@H](C)CO)C[C@@H]1C	0.3	7.4
16	C[C@H](CO)N1C[C@H](C)[C@@H](CN(C)Cc2ccncc2)Oc2c(NC(=O)c3ccncc3)cccc2C1=O	.	1.1
17	C[C@@H]1CN([C@H](C)CO)C(=O)c2cccc(NS(=O)(=O)c3ccc(Cl)cc3)c2O[C@@H]1CN(C)S(=O)(=O)c1ccc(Cl)cc1	.	1.0
18	C[C@H](CO)N1C[C@H](C)[C@@H](CN(C)S(=O)(=O)c2ccc(F)cc2)Oc2ccc(NC(=O)Nc3cccc4ccccc34)cc2C1=O	0.0	-3.4
19	CCOc1ccc(OC(=O)c2cccnc2)cc1	0.4	1.3
20	CCc1ccc(C2C3=C(CCCC3=O)OC3=C2C(=O)CCC3)cc1	-0.5	-0.7
21	COc1ccc2cc(C(=O)N3CCCCCC3)sc(=O)c2c1OC	.	1.6
22	Cc1ccc(-c2onc3ccc(Cl)cc23)cc1	-4.4	-4.0
23	Cc1ccc(C2=NNC(=O)C(P(=O)(c3ccccc3)c3ccccc3)C2)cc1 (centres undefined)	0.9	5.5
24	N#Cc1c(-c2ccc(Cl)cc2)nc2n(c1=O)CCCS2	0.8	-0.6
25	CC1(c2ccccc2)OC(=O)C2C3CCCCC3=C3CCCCC3C21 (centres undefined)	-0.9	3.5
26	CCC(C)(C(=O)NC1CCCCC1)N(C)C(=O)c1ccccn1 (centres undefined)	.	3.4
27	COc1cc(-c2coc3cc(OC)c(OC)c(OC)c3c2=O)cc(OC)c1OC	0.1	-0.9
28	C[C@@H]1CN([C@H](C)CO)C(=O)c2cc(NC(=O)C3CC3)ccc2O[C@@H]1CN(C)C(=O)Nc1ccccc1	0.5	-1.8
29	COc1ccc(NC(=O)Nc2cccc3c2O[C@H](CN(C)Cc2ccc(Cl)c(Cl)c2)[C@@H](C)CN([C@H](C)CO)C3=O)cc1	.	3.8
30	C=C(C(=O)O)C(O)CCC1(C)C2CC3C(C2)C31C (centres undefined)	0.3	-1.4
31	CCOC(=O)c1c(/N=C/C2C(=O)NC(=S)NC2=O)sc2c1CCCCC2	0.0	-2.8
32	O=C(CCS(=O)(=O)c1cccc2nsnc12)NC1CCCCC1	.	0.9
33	COc1ccc(NC(=O)Nc2ccc3c(c2)C(=O)N([C@@H](C)CO)C[C@H](C)[C@H](CN(C)S(=O)(=O)c2ccc(C)cc2)O3)cc1	2.1	7.6
34	C[C@@H]1O[C@@H](O[C@@H]2[C@@H](O)[C@H](O[C@@H]3[C@@H](O)[C@@H](O)[C@H](O[C@H]4[C@H](OC(=O)[C@]56CCC(C)(C)C[C@H]5C5=CCC7[C@@]8(C)C[C@H](O)[C@H](O[C@@H]9O[C@H](C(=O)O)[C@@H](O)[C@H](O)[C@H]9O)[C@@](C)(CO)C8[C@H](O)C[C@@]7(C)[C@]5(C)C[C@H]6O)OC[C@H](O)[C@@H]4O)O[C@H]3C)OC[C@H]2O)[C@H](O)[C@H](O)[C@H]1O (some centres undefined)	4.0	0.6
35	C[C@H](CO)N1C[C@H](C)[C@H](CN(C)C)Oc2c(NC(=O)Nc3ccc(F)cc3)cccc2C1=O	.	2.3
36	CCn1cc(C2N3CC4(C)CN2CC(C)(C3)C4O)c2ccccc21 (centres undefined)	.	-4.7
37	CSc1ccc(C(=O)NC(=O)Nc2cc(C)on2)s1	-0.2	0.2
38	C[C@@H]1CN([C@@H](C)CO)C(=O)c2cc(NC(=O)C3CC3)ccc2O[C@@H]1CN(C)C(=O)Nc1ccc2c(c1)OCO2	0.5	0.5
39	CC(NC(=O)c1ccccc1N)C(N)=O (centres undefined)	0.1	4.3
40	C[C@@H]1CN([C@@H](C)CO)C(=O)c2cc(NC(=O)Cc3ccccc3)ccc2O[C@@H]1CN(C)Cc1ccccc1	0.7	-1.7
41	CC(C)NC(=O)N(C)C[C@H]1Oc2ccc(NC(=O)C3CCCCC3)cc2C(=O)N([C@H](C)CO)C[C@@H]1C	0.1	-3.0
42	C[C@@H]1O[C@@H](O[C@H]2[C@H](Oc3cc(O)c4c(c3)O[C@H](c3ccc(O)cc3)CC4=O)O[C@H](CO)[C@@H](O)[C@@H]2O)[C@H](O)[C@H](O)[C@H]1O	-0.1	14
43	C[C@H]1CN([C@@H](C)CO)C(=O)c2cccc(NC(=O)c3cnccn3)c2O[C@@H]1CN(C)C	.	3.8
44	CCc1c(C)c(C#N)c2nc3ccccc3n2c1N1CCN(CCO)CC1	.	-1.0
45	CCCC(=O)c1cc2cc(Cl)ccc2oc1=O	1.1	3.2

# Next section, overlapping the part above by three compounds.
no.	SMILES	A1 inh	BJeLR viab HTS
43	C[C@H]1CN([C@@H](C)CO)C(=O)c2cccc(NC(=O)c3cnccn3)c2O[C@@H]1CN(C)C	.	3.8
44	CCc1c(C)c(C#N)c2nc3ccccc3n2c1N1CCN(CCO)CC1	.	-1.0
45	CCCC(=O)c1cc2cc(Cl)ccc2oc1=O	1.1	3.2
46	CC(=O)O[C@@H]1CC2C(C)(C)C=CC(=O)[C@]2(C)C2CC[C@@]3(C)[C@H](c4ccoc4)OC(=O)C4OC43[C@@]21C (some centres undefined)	0.6	-2.7
47	C[C@@H]1CN([C@@H](C)CO)C(=O)c2cccc(N(C)C)c2O[C@H]1CN(C)Cc1ccc(C(F)(F)F)cc1	.	-3.8
48	Cc1ccc(S(=O)(=O)Nc2ccc3c(c2)C(=O)N([C@H](C)CO)C[C@@H](C)[C@@H](CN(C)C)O3)cc1	0.0	-0.8
49	Nc1nccc(-c2nn(-c3ccc(Cl)cc3)ccc2=O)n1	0.2	-2.5
50	COC(=O)C1=C(NC(=O)c2cccc(Cl)c2)CCS1	-2.2	3.0
51	C[C@H]1CN([C@@H](C)CO)C(=O)c2cc(NC(=O)C3CCCCC3)ccc2O[C@@H]1CN(C)Cc1ccc2c(c1)OCO2	0.4	4.1
52	COc1cccc(-c2cc(C(=O)NC3CCCC3)no2)c1	.	6.0
53	COc1cc(OC2OC(COC3OCC(O)(CO)C3O)C(O)C(O)C2O)c2c(-c3ccc(O)c(O)c3)cc(=O)oc2c1 (centres undefined)	-0.5	-0.7
54	COc1ccc2c(c1)OC(O)(C(F)(F)F)CC2=O (centres undefined)	-0.1	1.2
55	CN(C(=O)c1ccc(COc2ccccc2Cl)o1)c1ccccc1	-0.4	-2.8
56	COc1ccc(S(=O)(=O)N(C)C[C@@H]2Oc3ccc(NC(=O)C4CC4)cc3C(=O)N([C@H](C)CO)C[C@H]2C)cc1	0.5	1.0
57	C[C@@H]1CN([C@H](C)CO)C(=O)c2cccc(NS(=O)(=O)c3cccs3)c2O[C@@H]1CN(C)Cc1ccc2c(c1)OCO2	.	-0.2
58	C=CCNc1sc(N)c(C#N)c1C(=O)c1ccc(Br)s1	-0.2	1.6
59	COc1ccc2[nH]c3c(=O)n(Cc4ccc(C(=O)NCCc5ccc(C)cc5)cc4)c(=S)[nH]c3c2c1	112*	3.9
60	CC(C)NC(=O)N(C)C[C@H]1Oc2ccc(NS(=O)(=O)c3ccccc3)cc2C(=O)N([C@@H](C)CO)C[C@@H]1C	0.7	-1.0

# Arranged by the number under A1 inh (largest number first): 3 of the compounds above
no.	Molecule	A1 inh
59	COc1ccc2[nH]c3c(=O)n(Cc4ccc(C(=O)NCCc5ccc(C)cc5)cc4)c(=S)[nH]c3c2c1	112*
54	COc1ccc2c(c1)OC(O)(C(F)(F)F)CC2=O (centres undefined)	-0.1
53	COc1cc(OC2OC(COC3OCC(O)(CO)C3O)C(O)C(O)C2O)c2c(-c3ccc(O)c(O)c3)cc(=O)oc2c1 (centres undefined)	-0.5

# (cont.)
no.	SMILES	A1 inh	BJeLR viab HTS
61	Cc1c(C)n(C(=O)CSc2nc3ccccc3s2)c2ccccc12	-1.5	-0.4
62	O=C(CSc1nnc(-c2ccco2)o1)N1CCCc2ccccc21	.	3.4
63	COc1ccc(S(=O)(=O)Nc2cccc3c2O[C@H](CN(C)S(=O)(=O)c2ccc(Cl)cc2)[C@@H](C)CN([C@H](C)CO)C3=O)cc1	.	0.0
64	COc1ccc(CN(C)C[C@@H]2Oc3ccc(NS(=O)(=O)c4cccs4)cc3C(=O)N([C@@H](C)CO)C[C@H]2C)cc1	-0.5	0.6
65	O=C(NCCc1ccccc1)c1ccc(Cl)cc1	-6.0	2.3
66	C[C@H]1CN([C@@H](C)CO)C(=O)c2cc(NC(=O)C3CC3)ccc2O[C@H]1CN(C)C(=O)Nc1ccc2c(c1)OCO2	0.2	-1.1
67	CC1CCN(c2nnc(NC(=O)c3cc(-c4ccc(Br)cc4)on3)s2)CC1	0.0	-0.5
68	Brc1ccccc1OCC1CCCN2CCCCC12 (centres undefined)	1.3	15
69	CNC[C@@H]1Oc2c(NC(=O)Nc3c(C)noc3C)cccc2C(=O)N([C@H](C)CO)C[C@@H]1C	.	-1.5
70	C[C@@H]1CN([C@H](C)CO)C(=O)c2cc(NC(=O)CCCN(C)C)ccc2O[C@H]1CN(C)Cc1ccncc1	1.0	-2.4
71	COc1ccc(CN(C)C[C@@H]2Oc3ccc(NC(=O)Nc4c(C)noc4C)cc3C(=O)N([C@@H](C)CO)C[C@@H]2C)cc1	-0.1	0.4
72	C[C@H]1CN([C@@H](C)CO)C(=O)c2cc(NS(=O)(=O)c3cn(C)cn3)ccc2O[C@@H]1CN(C)Cc1ccc(Cl)c(Cl)c1	1.0	-1.7
73	C[C@H]1CN([C@@H](C)CO)C(=O)c2cc(NC(=O)Nc3ccc4c(c3)OCO4)ccc2O[C@@H]1CN(C)S(C)(=O)=O	1.3	2.0
74	C[C@H](CO)N1C[C@H](C)[C@H](CN(C)CC2CCCCC2)Oc2c(NS(=O)(=O)c3ccc(Cl)cc3)cccc2C1=O	.	-4.4
75	COc1ccc(CN(C)C[C@@H]2Oc3c(NC(=O)NC4CCCCC4)cccc3C(=O)N([C@H](C)CO)C[C@@H]2C)cc1	.	4.6
76	CCCCC(CC)CNc1nc(=S)[nH]c2ccccc12 (centres undefined)	0.3	-3.1
77	CCCCC1(Cc2ccccc2)C(=O)Nc2ccccc2C1=O (centres undefined)	0.0	2.8
78	CC(C)CC(C(=O)O)N1C(=O)c2ccccc2C1=O (centres undefined)	0.4	1.9
79	C[C@@H]1CN([C@H](C)CO)C(=O)c2cc(NC(=O)C3CC3)ccc2O[C@H]1CN(C)S(=O)(=O)c1cccs1	0.2	-4.0
80	COc1ccc(S(=O)(=O)Nc2ccc3c(c2)C(=O)N([C@H](C)CO)C[C@H](C)[C@@H](CN(C)C(=O)Nc2ccc(C(F)(F)F)cc2)O3)cc1	-0.3	-2.0
81	CCOC(=O)c1c(-c2ccc(OC)cc2)csc1NC(=O)CSc1nnc2ccccn12	.	3.2
82	COc1ccc(NC(=O)Nc2cccc3c2O[C@@H](CN(C)Cc2ccncc2)[C@@H](C)CN([C@H](C)CO)C3=O)cc1	.	6.6
83	CS(=O)(=O)N1CCCC(C(=O)N2CCCCC2)C1 (centres undefined)	-0.6	-5.0
84	COc1cccc(Cn2c(SCc3ccc(C(=O)NC4CCCC4)cc3)nc3ccncc32)c1	1.1	-4.2
85	C=CCn1c(SCC(=O)NCCc2ccccc2)nc2sc3c(c2c1=O)CCCC3	-0.3	1.4
86	O=C(Nc1ccccc1)Nc1ccc2c(c1)OCO2	-5.5	16

# Screening results: PubChem, Broad Institute

# The list is partial (hit frequency here may not be typical).
